# A1 apoptosis 2 – A1 inhibition read as caspase activation | MEF A1-2A-BIM cells, caspase-Glo luminescence, 3 h; percent of clofoctol response, DMSO zero | caspase activation, % (test concentration not listed) | 24,000 tested, under 10 active | AID 2465; in the data active means caspase activation above about 5.9%;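 further: wells of about 30 µL received 50 nL stock; the first replicate is given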
#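 Material: mouse embryonic fibroblasts co-expressing A1 and BIM (A1-2A-BIM), primed for A1 dependence / Quantity: 2500 cells/well / Buffer or medium: RPMI-1640 growth medium with 10% FBS / Doses: 50 nL compound per well, pinned / Schedule: 3 h compound exposure at 37 °C / Signal: Caspase-Glo luminescence (DEVD substrate) / Measure: Caspase-3/7 activation, seen as rise in luminescence signal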
# Active calls of the source: *.
# Start of the listing, in advance:
SMILES,A1 apoptosis 2
C[C@@H]1CN([C@H](C)CO)C(=O)c2cccc(NC(=O)C3CCCCC3)c2O[C@H]1CN(C)C(=O)Nc1cccc2ccccc12,-0.4
Cc1nnc(Sc2ccc(/C=N/NC(=O)c3ccc(C(=O)NO)cc3)o2)n1C,0.6

# The listing, previewed entries included:
SMILES,A1 apoptosis 2
C[C@@H]1CN([C@H](C)CO)C(=O)c2cccc(NC(=O)C3CCCCC3)c2O[C@H]1CN(C)C(=O)Nc1cccc2ccccc12,-0.4
Cc1nnc(Sc2ccc(/C=N/NC(=O)c3ccc(C(=O)NO)cc3)o2)n1C,0.6
CNC[C@H]1Oc2ccc(NS(=O)(=O)c3ccc(Cl)cc3)cc2C(=O)N([C@@H](C)CO)C[C@H]1C,-0.9
COc1ccc(S(=O)(=O)Nc2ccc3c(c2)C(=O)N([C@H](C)CO)C[C@@H](C)[C@@H](CN(C)S(=O)(=O)c2ccc(C)cc2)OCCCC[C@@H](C)O3)cc1,-0.9
NCCCCCNC(=O)[C@H]1C[C@H]2C(=O)NCC(=O)N2[C@H]1c1cccc(OCCO)c1,0.6
C[C@H]1CN([C@@H](C)CO)C(=O)c2cccc(NS(=O)(=O)c3ccc(Cl)cc3)c2O[C@H]1CN(C)S(C)(=O)=O,-0.2
Cc1noc(C)c1S(=O)(=O)N(C)C[C@H]1Oc2ccc(NC(=O)Nc3cccc4ccccc34)cc2CC(=O)N([C@H](C)CO)C[C@H]1C,0.1
CNC[C@@H]1Oc2c(NS(C)(=O)=O)cccc2C(=O)N([C@H](C)CO)C[C@@H]1C,-1.2
C[C@@H]1CN([C@@H](C)CO)C(=O)c2cc(NC(=O)Cn3cnnn3)ccc2O[C@@H]1CN(C)C,-0.4
C[C@@H]1CN([C@H](C)CO)C(=O)c2cc(NS(=O)(=O)c3ccccc3)ccc2O[C@@H](C)CCCCO[C@H]1CN(C)S(=O)(=O)c1ccc(Cl)cc1,-0.3
Cc1noc(C)c1S(=O)(=O)Nc1cccc2c1O[C@H](CN(C)CC1CCCCC1)[C@H](C)CN([C@@H](C)CO)C2=O,-0.3
C[C@H](CO)N1C[C@H](C)[C@H](CN(C)C(=O)Nc2cccc3ccccc23)Oc2ccc(NC(=O)Nc3ccc(F)cc3)cc2C1=O,0.5
Cc1ccc(S(=O)(=O)N(C)C[C@@H]2Oc3ccc(NC(=O)Nc4cccc5ccccc45)cc3CC(=O)N([C@H](C)CO)C[C@@H]2C)cc1,0.3
CCCN(C)C[C@@H]1OCCCC[C@@H](C)Oc2ccc(NS(=O)(=O)c3ccc(C)cc3)cc2C(=O)N([C@@H](C)CO)C[C@@H]1C,-0.5
COc1ccc(S(=O)(=O)Nc2ccc3c(c2)CC(=O)N([C@H](C)CO)C[C@@H](C)[C@H](CN(C)Cc2ccc(Oc4ccccc4)cc2)O3)cc1,0.0
CNC[C@H]1OCCCC[C@H](C)Oc2ccc(NS(=O)(=O)c3ccc(Cl)cc3)cc2C(=O)N([C@@H](C)CO)C[C@@H]1C,-0.4
C[C@@H]1CCCCO[C@@H](CN(C)C(=O)CCCN(C)C)[C@H](C)CN([C@@H](C)CO)C(=O)c2cc(NC(=O)C3CCCCC3)ccc2O1,-0.3
C[C@H](CO)N1C[C@H](C)[C@H](CN(C)Cc2ccc(C(F)(F)F)cc2)Oc2ccc(NC(=O)Cc3cn(C)c4ccccc34)cc2C1=O,-1.3
C[C@H](CO)N1C[C@H](C)[C@@H](CN(C)Cc2ccncc2)Oc2ccc(NC(=O)Nc3cccc4ccccc34)cc2CC1=O,1.4
COc1ccc(CN(C)C[C@H]2Oc3ccc(NC(=O)Nc4c(C)noc4C)cc3C(=O)N([C@@H](C)CO)C[C@H]2C)cc1,-0.2
C[C@H](CO)N1C[C@H](C)[C@H](CN(C)Cc2ccc(C(F)(F)F)cc2)Oc2c(NC(=O)c3nc4ccccc4s3)cccc2C1=O,-0.8
Cc1noc(C)c1NC(=O)N(C)C[C@H]1Oc2c(NC(=O)Nc3ccccc3)cccc2C(=O)N([C@H](C)CO)C[C@H]1C,0.0
C[C@@H]1CN([C@H](C)CO)C(=O)Cc2cc(NC(=O)Nc3ccc(F)cc3)ccc2O[C@H]1CN(C)Cc1ccc(-c2ccccc2)cc1,0.9
C[C@@H]1CN([C@H](C)CO)C(=O)Cc2cc(NC(=O)Nc3ccc4c(c3)OCO4)ccc2O[C@@H]1CN(C)C(=O)NC1CCCCC1,1.5
Cc1ccc(S(=O)(=O)Nc2cccc3c2O[C@@H](CN(C)Cc2ccccc2)[C@H](C)CN([C@H](C)CO)C3=O)cc1,-0.6
C[C@@H]1CN([C@H](C)CO)C(=O)Cc2cc(NC(=O)C3CC3)ccc2O[C@H]1CN(C)Cc1ccc2c(c1)OCO2,0.8
C[C@H](CO)N1C[C@H](C)[C@@H](CN(C)C(=O)Nc2cccc3ccccc23)Oc2c(NC(=O)c3cnccn3)cccc2C1=O,2.1
COc1ccc(S(=O)(=O)N(C)C[C@@H]2Oc3c(NS(=O)(=O)c4cccs4)cccc3C(=O)N([C@H](C)CO)C[C@@H]2C)cc1,0.5
Cc1ccc(S(=O)(=O)Nc2cccc3c2O[C@@H](CN(C)C(=O)Nc2ccc4c(c2)OCO4)[C@H](C)CN([C@@H](C)CO)C3=O)cc1,2.9
Cc1noc(C)c1S(=O)(=O)N(C)C[C@H]1Oc2ccc(NC(=O)Nc3ccc(C(F)(F)F)cc3)cc2CC(=O)N([C@@H](C)CO)C[C@@H]1C,-1.8

# No new results follow: two of the compounds above.
SMILES,A1 apoptosis 2
Cc1ccc(S(=O)(=O)Nc2cccc3c2O[C@@H](CN(C)C(=O)Nc2ccc4c(c2)OCO4)[C@H](C)CN([C@@H](C)CO)C3=O)cc1,2.9
Cc1noc(C)c1S(=O)(=O)N(C)C[C@H]1Oc2ccc(NC(=O)Nc3ccc(C(F)(F)F)cc3)cc2CC(=O)N([C@@H](C)CO)C[C@@H]1C,-1.8

# (next part)
SMILES,A1 apoptosis 2
C[C@@H]1CN([C@@H](C)CO)C(=O)c2cc(NC(=O)C3CC3)ccc2O[C@H]1CN(C)Cc1ccc(C(=O)Nc2ccccc2N)cc1,-0.1
C[C@H](CO)N1C[C@H](C)[C@@H](CN(C)S(=O)(=O)c2ccc(Cl)cc2)OCCCC[C@H](C)Oc2ccc(NC(=O)Nc3cccc4ccccc34)cc2C1=O,1.0
C[C@H](CO)N1C[C@H](C)[C@@H](CN(C)Cc2ccccc2)Oc2ccc(NS(=O)(=O)c3ccc(F)cc3)cc2CC1=O,-0.2
C[C@@H]1CN([C@H](C)CO)C(=O)Cc2cc(NC(=O)Nc3cccc4ccccc34)ccc2O[C@H]1CN(C)C(=O)NC1CCCCC1,0.5
C[C@@H]1CN([C@@H](C)CO)C(=O)c2cccc(NS(=O)(=O)c3ccccc3)c2O[C@@H]1CN(C)S(=O)(=O)c1ccc(F)cc1,0.0
C[C@@H]1CN([C@H](C)CO)C(=O)c2cc(NS(=O)(=O)c3ccc(F)cc3)ccc2O[C@H]1CN(C)Cc1ccc(C(=O)O)cc1,-0.9
COc1ccc(S(=O)(=O)Nc2ccc3c(c2)C(=O)N([C@H](C)CO)C[C@H](C)[C@@H](CN(C)S(=O)(=O)c2ccc(OC)cc2)OCCCC[C@@H](C)O3)cc1,-0.9
C[C@H](CO)N1C[C@H](C)[C@H](CN(C)Cc2ccc(Oc3ccccc3)cc2)Oc2c(NC(=O)C3CCOCC3)cccc2C1=O,-0.1
C[C@@H]1CCCCO[C@H](CN(C)C(=O)CCCN(C)C)[C@@H](C)CN([C@@H](C)CO)C(=O)c2cc(N(C)C)ccc2O1,0.1
Cc1ccc(S(=O)(=O)Nc2cccc3c2O[C@@H](CN(C)Cc2ccc(C(=O)Nc4ccccc4N)cc2)[C@@H](C)CN([C@@H](C)CO)C3=O)cc1,-0.8
C[C@@H]1CN([C@@H](C)CO)C(=O)Cc2cc(NC(=O)CCCN(C)C)ccc2O[C@H]1CN(C)C,-1.0
Cc1noc(C)c1NC(=O)N(C)C[C@H]1Oc2ccc(NC(=O)Nc3ccccc3)cc2C(=O)N([C@H](C)CO)C[C@@H]1C,-0.2
C[C@@H]1CN([C@@H](C)CO)C(=O)c2cc(NC(=O)Nc3ccc4c(c3)OCO4)ccc2O[C@@H](C)CCCCO[C@H]1CN(C)Cc1ccc(C(F)(F)F)cc1,-1.0
C[C@H]1CN([C@@H](C)CO)C(=O)c2cc(NC(=O)Nc3cccc4ccccc34)ccc2O[C@@H]1CN(C)C(=O)Nc1cccc2ccccc12,-1.3
CC(C)NC(=O)Nc1ccc2c(c1)C(=O)N([C@H](C)CO)C[C@H](C)[C@H](CN(C)Cc1ccc(Cl)c(Cl)c1)OCCCC[C@H](C)O2,-0.3
C[C@@H]1CN([C@@H](C)CO)C(=O)c2cc(NC(=O)Cn3cnnn3)ccc2O[C@@H]1CN(C)Cc1ccc(C(=O)Nc2ccccc2N)cc1,0.4
C[C@@H]1CN([C@H](C)CO)C(=O)c2cccc(NC(=O)C3CCOCC3)c2O[C@@H]1CN(C)S(=O)(=O)c1ccc(Cl)cc1,-0.2
CCO[C@@H]1OC(C(=O)NCc2ccccc2)=C[C@H](C(C)(C)C)[C@H]1CCCO,0.8
O=C(NO)c1cccc(C(=O)N/N=C/c2cccc(Oc3ccccc3)c2)c1,-4.3
C[C@@H]1CN([C@H](C)CO)C(=O)c2cc(NC(=O)NC3CCCCC3)ccc2O[C@@H](C)CCCCO[C@@H]1CN(C)S(=O)(=O)c1ccc(Cl)cc1,0.1
C[C@H](CO)N1C[C@H](C)[C@H](CN(C)Cc2ccc3c(c2)OCO3)Oc2ccc(NC(=O)Nc3cccc4ccccc34)cc2C1=O,-0.6
C[C@@H]1CN([C@H](C)CO)C(=O)c2cccc(NC(=O)c3ccncc3)c2O[C@H]1CN(C)CC1CCCCC1,-0.1
C[C@@H]1CN([C@H](C)CO)C(=O)c2cc(NC(=O)CCN3CCOCC3)ccc2O[C@H]1CN(C)Cc1ccc(-c2ccccc2)cc1,-0.3
CO[C@H]1O[C@H](CO)[C@@H](OC(=O)Nc2ccccc2)[C@H](OC(=O)Nc2ccc3c(c2)OCO3)[C@@H]1OC(=O)Nc1ccc2c(c1)OCO2,0.2
C[C@@H]1CCCCO[C@@H](CN(C)C(=O)Nc2cccc3ccccc23)[C@H](C)CN([C@H](C)CO)C(=O)c2cc(N(C)C)ccc2O1,-1.1
COc1ccc(S(=O)(=O)N(C)C[C@@H]2OCCCC[C@@H](C)Oc3ccc(NC(=O)CCCN(C)C)cc3C(=O)N([C@H](C)CO)C[C@H]2C)cc1,0.2
C[C@H](CO)N1C[C@H](C)[C@H](CN(C)C(=O)Nc2cccc3ccccc23)Oc2ccc(NS(=O)(=O)c3ccccc3)cc2CC1=O,-1.2
Cc1noc(C)c1NC(=O)N(C)C[C@H]1Oc2ccc(NC(=O)Cc3ccccc3)cc2C(=O)N([C@@H](C)CO)C[C@H]1C,-1.1
COc1ccc(NC(=O)N(C)C[C@@H]2Oc3ccc(N(C)C)cc3C(=O)N([C@@H](C)CO)C[C@H]2C)cc1,-0.4
Cc1noc(C)c1NC(=O)N(C)C[C@@H]1OCCCC[C@@H](C)Oc2ccc(NS(=O)(=O)c3ccc(Cl)cc3)cc2C(=O)N([C@H](C)CO)C[C@@H]1C,1.1

# As entered above.
# In A1 apoptosis 2, C[C@@H]1CN([C@H](C)CO)C(=O)c2cccc(NC(=O)C3CCOCC3)c2O[C@@H]1CN(C)S(=O)(=O)c1ccc(Cl)cc1 is listed with -0.2
# In A1 apoptosis 2, C[C@@H]1CN([C@@H](C)CO)C(=O)c2cc(NC(=O)Cn3cnnn3)ccc2O[C@@H]1CN(C)Cc1ccc(C(=O)Nc2ccccc2N)cc1 is listed with 0.4
# In A1 apoptosis 2, CCO[C@@H]1OC(C(=O)NCc2ccccc2)=C[C@H](C(C)(C)C)[C@H]1CCCO is listed with 0.8
# In A1 apoptosis 2, C[C@@H]1CN([C@H](C)CO)C(=O)c2cccc(NC(=O)c3ccncc3)c2O[C@H]1CN(C)CC1CCCCC1 is listed with -0.1
# In A1 apoptosis 2, C[C@@H]1CN([C@H](C)CO)C(=O)c2cc(NC(=O)CCN3CCOCC3)ccc2O[C@H]1CN(C)Cc1ccc(-c2ccccc2)cc1 is listed with -0.3

# The listing continues:
SMILES,A1 apoptosis 2
C[C@@H]1CN([C@H](C)CO)C(=O)c2cc(NC(=O)CCCN(C)C)ccc2O[C@@H](C)CCCCO[C@@H]1CN(C)S(=O)(=O)c1ccccc1,0.7
Cc1ccc(S(=O)(=O)Nc2cccc3c2O[C@H](CN(C)Cc2ccc(Cl)c(Cl)c2)[C@H](C)CN([C@H](C)CO)C3=O)cc1,-0.1
COc1ccc(CN(C)C[C@@H]2Oc3c(NC(=O)Nc4ccc(F)cc4)cccc3C(=O)N([C@@H](C)CO)C[C@H]2C)cc1,-1.9
COc1ccc(NC(=O)Nc2ccc3c(c2)C(=O)N([C@H](C)CO)C[C@H](C)[C@@H](CN(C)Cc2ccc(Cl)c(Cl)c2)O3)cc1,-1.8
C[C@H](CO)N1C[C@H](C)[C@@H](CN(C)CC2CCCCC2)Oc2c(NS(=O)(=O)c3ccc(F)cc3)cccc2C1=O,0.3
C[C@H](CO)N1C[C@H](C)[C@@H](CN(C)Cc2ccc(-c3ccccc3)cc2)Oc2ccc(NC(=O)NC3CCCCC3)cc2C1=O,-3.4
O=C(N/N=C/c1c(O)cc(O)cc1O)c1ccccc1O,-7.3
C[C@@H]1CCCCO[C@H](CN(C)Cc2ccncc2)[C@@H](C)CN([C@@H](C)CO)C(=O)c2cc(NS(=O)(=O)c3cn(C)cn3)ccc2O1,1.6
Cc1ccc(S(=O)(=O)Nc2ccc3c(c2)C(=O)N([C@H](C)CO)C[C@H](C)[C@H](CN(C)S(=O)(=O)c2cccs2)O3)cc1,0.2
C[C@@H]1CN([C@@H](C)CO)C(=O)c2cc(NS(C)(=O)=O)ccc2O[C@H]1CN(C)Cc1ccccc1,-0.6
C[C@@H]1CCCCO[C@@H](CN(C)S(C)(=O)=O)[C@@H](C)CN([C@H](C)CO)C(=O)c2cc(NC(=O)CCC(F)(F)F)ccc2O1,-0.3

# Screens deposited in PubChem by Broad Institute.

# Not all compounds are listed. The share of hits here may be higher or lower than overall.
